Source: PubChem BioAssay (several laboratories)
Vif TR-FRET: HIV-1 Vif–A3G interaction blockers – biochemical, TR-FRET, GST-Vif 1-94, biotin-A3G peptide, dose response retest, primary screen (AID 1117319); hit rate 0.57% among 260,000; TR-FRET GST-Vif / biotin-A3G peptide binding; higher % means a stronger effect; test concentration not given here; strong numbers were not always called active; one-dose inhibition, %; IC50 in µM for titrated hits;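 active = above the screen mean plus three standard deviations and confirmed in dose response; inconclusive = results disagree or hit not tested in dose response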;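 note: Vif residues 1-94 fused to GST binding biotinylated APOBEC3G peptide 110-148; 0% = full assay without inhibitor and 100% = GST in place of GST-Vif; retest series ran down from 100 µM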
HNF4A DNA FP: change in binding of human HNF4 alpha to DNA | P41235 | HNF4a-FITC DNA binding, fluorescence polarization, 1 h | activity change, % at 10 µM | hit rate 0.3% among 360,000 | AID 1224865; in the data active = activity change above about 30%, passing the limit was not always enough;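 note: controls were the assay level and a saturating level of protein; the project sought stronger binding though the title names inhibitors; some compounds called inactive have numbers as strong as hits; positive values seem to mean higher polarization but the record does not say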
Target sequence (P41235 whole entry, looked up): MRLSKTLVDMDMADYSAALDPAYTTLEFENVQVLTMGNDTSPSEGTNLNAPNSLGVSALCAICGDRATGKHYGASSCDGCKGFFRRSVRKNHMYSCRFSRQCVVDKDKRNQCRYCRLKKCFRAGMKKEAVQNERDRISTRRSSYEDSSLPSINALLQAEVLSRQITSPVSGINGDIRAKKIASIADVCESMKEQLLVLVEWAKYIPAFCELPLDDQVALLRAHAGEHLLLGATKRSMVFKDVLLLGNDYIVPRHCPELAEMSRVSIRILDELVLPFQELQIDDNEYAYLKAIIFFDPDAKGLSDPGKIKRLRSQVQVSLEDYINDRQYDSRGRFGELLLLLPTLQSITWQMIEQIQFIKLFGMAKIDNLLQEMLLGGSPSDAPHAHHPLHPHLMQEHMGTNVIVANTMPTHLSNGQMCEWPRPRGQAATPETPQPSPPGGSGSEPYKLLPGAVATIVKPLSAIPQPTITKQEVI
MLL AF4-AF9 inh: inhibitors of human MLL-AF4/AF9 interaction; AID 651704; P42568; inhibition, % at 10 µM; AlphaScreen, biotin-AF4 peptide binding to FLAG-AF9; hit rate 0.47% among 350,000;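 active = every replicate reaching a set inhibition limit, whatever the replicate mean, cut at about 25% in these data; inconclusive = mean inhibition reaches that limit but some replicates miss it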;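 note: 0% = plate neutral control median and 100% = total signal loss; the record names both 10 and 1 µM as test concentration; the first replicate is given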
FGF22 binding: binders of recombinant human FGF22 by thermal shift; Q9HCT0; SYPRO orange fluorescence; percent of sucrose octasulfate shift, DMSO zero; calls only at 9.99 µM; hit rate 1.5% among 340,000; AID 651658;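 active = melting point raised past a set limit in the mean and every replicate; inconclusive = no clear call; three in four hits are not shown here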
Target sequence (Q9HCT0 whole entry, looked up): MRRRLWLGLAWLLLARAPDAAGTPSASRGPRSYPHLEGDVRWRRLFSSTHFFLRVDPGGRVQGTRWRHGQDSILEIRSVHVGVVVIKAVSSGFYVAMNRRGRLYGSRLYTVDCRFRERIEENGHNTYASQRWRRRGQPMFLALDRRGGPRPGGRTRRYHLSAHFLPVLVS
Ecoli rRNA inh: inhibits bacterial ribosomal RNA function over humanized ribosomes. hit rate 1.6% among 350,000. E. coli WT GFP vs humanized-ribosome RFP mutants, fluorescence, 24 h; active compounds read low; DMSO median 0, no signal -100. GFP signal change (wild-type ribosome), % (no concentration beside the values);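 active = significant combined selectivity score with lowered wild-type GFP, culture density cut under 30%, mutant RFP and density less affected; inactive = any of these conditions unmet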; note: one replicate is shown; some compounds called inactive have numbers as strong as hits
ALR H2O2 inh: human ALR oxidase inhibition via reduced H2O2 | P55789 | purified ALR, DTT oxidation, H2O2 HRP-luminol luminescence | inhibition, % (test concentration not listed) | hit rate 3.8% among 290,000 | AID 485317;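 active = mean and each replicate at 75% or more; inconclusive = only one of the two met; inactive = neither met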;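 note: stock transfer was 7.5 nL into about 7.5 µL; 0% = neutral wells and 100% = wells with inactivated enzyme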
Target sequence (P55789 whole entry, looked up): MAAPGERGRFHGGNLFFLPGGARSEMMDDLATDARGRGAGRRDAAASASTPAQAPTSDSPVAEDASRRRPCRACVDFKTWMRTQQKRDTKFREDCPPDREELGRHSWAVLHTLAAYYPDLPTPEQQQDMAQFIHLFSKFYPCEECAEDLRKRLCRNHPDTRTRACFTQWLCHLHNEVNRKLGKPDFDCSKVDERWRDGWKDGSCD
Ecoli growth: inhibitors of Escherichia coli growth. OD600, 23 h; active compounds read low. OD600 absorbance (test concentration not listed). hit rate 0.21% among 330,000. AID 1053175;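 active = OD600 absorbance below the run mean of sample wells minus 3.6 SD, in any replicate, cut at about 0.56 in these data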;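 note: stock transfer was 300 nL into about 60 µL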
Ecoli rRNA inh OD600: also measured in Ecoli rRNA inh; calls as there; OD600 change, %; measured here: OD600 growth;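 optical density of the mix in the first replicate; 0 = DMSO median and -100 = no signal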
Ecoli rRNA inh RFP: second read-out of Ecoli rRNA inh, no call of its own (marks repeat the call); RFP signal change, %; measured here: RFP humanized mutant strains;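 first replicate; 0 = DMSO median and -100 = no signal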
An asterisk follows results filed as active; i = inactive; ? = inconclusive; . = not tested or not shown.

SMILES	Vif TR-FRET	HNF4A DNA FP	MLL AF4-AF9 inh	FGF22 binding	Ecoli rRNA inh	Ecoli rRNA inh OD600	Ecoli rRNA inh RFP	ALR H2O2 inh	Ecoli growth
COc1ccccc1-c1noc(-c2ccccc2C(=O)Nc2ccccc2)n1	-9.2%	-5.4	.	.	.	.	.	0.1	0.726
C[C@@H]1CN([C@@H](C)CO)C(=O)c2cc(C#CC3(O)CCCC3)cnc2O[C@@H]1CN(C)Cc1ccccc1	.	.	-0.7	i	0.2	11.2	0.5	.	.
CCCNC(=O)C[C@@H]1C[C@H]2c3cc(NC(=O)Nc4ccc(OC)cc4)ccc3O[C@H]2[C@@H](CO)O1	.	.	0.1	i	0.6	-1.6	2.0	.	.
COc1ccc(NC(=O)Nc2ccc3c(c2)C(=O)N([C@@H](C)CO)C[C@H](C)[C@H](CN(C)S(=O)(=O)c2ccc(C)cc2)OCCCC[C@H](C)O3)cc1	.	.	-5.2	i	2.0	3.1	0.5	.	.
O=C(N/N=C/c1c(F)cccc1Cl)C(=O)N1CCCCCC1	.	-4.2	-2.0	i	8.7	17.4	5.9	3.0	.
Cc1ccc2nc(SCC(=O)Nc3cccc(F)c3)nc(=O)n2c1	.	0.0	-2.5	i	5.7	13.6	-0.4	.	.
C[C@H](CO)N1C[C@H](C)[C@H](CN(C)C(=O)C2CCOCC2)Oc2ncc(C3=CCCC3)cc2C1=O	.	.	-2.2	i	2.2	1.8	1.4	.	.
S=c1[nH]ccn1Cc1ccccc1	4.9%	-3.0	-1.0	i	6.6	2.7	-1.4	20.2	0.688
COc1ccc(NC(C)=O)cc1S(=O)(=O)Nc1ccccc1C(=O)NCCc1ccccc1	-1.8%	-2.0	-2.7	i	-1.1	-16.1	2.1	.	0.681
Cc1cccc(S(=O)(=O)NC2CCCCCCC2)c1	.	-2.3	-0.8	i	-13.2	-24.8	-1.5	-12.3	0.629
O=C(Cn1cc(C(=O)c2ccco2)c2ccccc21)NC1CCCC1	-3.4%	-0.5	.	.	.	.	.	21.4	0.731
COc1ccc(NC(=O)Nc2cccc3c2O[C@@H](CN(C)Cc2ccc(C(F)(F)F)cc2)[C@@H](C)CN([C@@H](C)CO)C3=O)cc1	.	.	2.7	i	-1.8	-5.2	-0.8	.	.
COc1ccc(S(=O)(=O)Nc2ccc3c(c2)C(=O)N([C@H](C)CO)C[C@H](C)[C@@H](CN(C)C(=O)c2ccccc2)OCCCC[C@H](C)O3)cc1	.	.	0.9	i	-1.0	-4.0	2.2	.	.
Cc1ccc(S(=O)(=O)NC(=O)c2cc(C)n(-c3ccc(N(C)C)cc3)c2C)cc1	.	0.8	-1.3	i	-22.6	-20.7	-1.0	94.9*	.
C[C@H]1CN([C@@H](C)CO)S(=O)(=O)c2ccc(C#Cc3ccncc3)cc2O[C@H]1CN(C)S(=O)(=O)c1ccccc1	.	.	4.7	i	-4.7	-5.7	6.6	.	.
COc1ccc(C)cc1NC(=O)CCc1c(C)nn(-c2ccc(N3CCCCC3)nn2)c1C	.	3.1	2.1	i	9.3	6.5	1.7	-2.8	0.652
Cc1cc(C)nc(Nc2ccccc2Cl)n1	1.8%	-0.3	7.4	i	2.7	5.6	-3.3	-10.7	0.625
CC1CCCN(C(=O)Cn2nnc(-c3ccccc3F)n2)C1 (stereo not drawn)	.	1.5	-3.7	i	7.3	0.9	-0.7	-1.9	0.703
COc1ccccc1NC(=O)c1cnc2n(c1=O)CCS2	?	0.6	.	.	.	.	.	-1.9	0.703
CC(C)n1c(NCCc2ccccc2)nc2c1c(=O)n(C)c(=O)n2C	3.1%	0.3	.	.	4.3	13.0	6.7	-2.5	0.746
COc1cccc(C(=O)NC(C)c2ccc(-c3ccccc3)cc2)c1OC (stereo not drawn)	2.1%	6.0	-3.8	i	-4.4	-47.9	21.3	-30.6	.
O=C(O)c1ccc2c(c1)C(=O)N(c1cccc(S(=O)(=O)Nc3cccc(C(F)(F)F)c3)c1)C2=O	25.9%	-0.7	-3.9	i	-3.0	-5.1	6.0	.	0.676
COc1ccc(NC2=C(Cl)C(=O)N(c3ccccc3)C2=O)c(OC)c1	-4.7%	0.6	3.4	i	13.1	23.2	1.0	42.6	0.708
CCCC#Cc1ccc2c(c1)O[C@H](CN(C)C(=O)COC)[C@H](C)CN([C@@H](C)CO)S2(=O)=O	.	.	0.4	i	2.2	3.8	0.6	.	.
CNC(=O)c1sc(Nc2ccc(OCc3ccccc3)cc2)nc1C	.	0.9	0.4	i	-13.8	-22.5	0.5	-2.4	0.69

The last 2 entries of the section above lead into the next.
SMILES	Vif TR-FRET	HNF4A DNA FP	MLL AF4-AF9 inh	FGF22 binding	Ecoli rRNA inh	Ecoli rRNA inh OD600	Ecoli rRNA inh RFP	ALR H2O2 inh	Ecoli growth
CCCC#Cc1ccc2c(c1)O[C@H](CN(C)C(=O)COC)[C@H](C)CN([C@@H](C)CO)S2(=O)=O	.	.	0.4	i	2.2	3.8	0.6	.	.
CNC(=O)c1sc(Nc2ccc(OCc3ccccc3)cc2)nc1C	.	0.9	0.4	i	-13.8	-22.5	0.5	-2.4	0.69
Cc1[nH]n(-c2ccc(Cl)cc2)c(=O)c1/C=N/c1nnc(-c2ccccc2)s1	14.8%	23.1	.	.	.	.	.	24.7	.
COc1cc(C2NC(=S)NC(O)(C(F)(F)F)C2C(=O)c2cccs2)cc(OC)c1O (stereo not drawn)	26.6%	6.2	.	.	.	.	.	6.7	0.703
Cc1ccc(NC(=O)C(C)OC(=O)c2ccc(NC(=O)CC#N)cc2)cc1S(=O)(=O)N1CCOCC1 (stereo not drawn)	4.8%	4.1	1.0	i	9.3	6.0	3.3	.	0.653
C[C@@H]1CN([C@H](C)CO)C(=O)c2cc(NC(=O)Nc3ccc4c(c3)OCO4)ccc2O[C@H]1CN(C)Cc1ccc(Cl)c(Cl)c1	.	.	2.7	i	-3.5	-6.3	-1.5	.	.
CC(=O)N(C)C[C@H]1Oc2cc(C#Cc3ccccc3)ccc2S(=O)(=O)N([C@H](C)CO)C[C@H]1C	.	.	-0.2	i	0.5	-9.1	7.0	.	.
C=CCNC(=O)COC(=O)C1CCN(S(=O)(=O)c2ccc3c(c2)OCCO3)CC1	.	-1.2	-1.1	i	3.8	-1.1	1.4	-2.7	0.705
CC(=O)Nc1ccc(SCC(=O)c2c(N)n(Cc3ccccc3)c(=O)n(C)c2=O)cc1	-4.5%	1.2	-17.2	i	5.6	6.8	8.4	-126.6	0.718
CN(CC(=O)Nc1cccc(F)c1)C(=O)C1CCC(C(=O)N(C)CC(=O)Nc2cccc(F)c2)CC1 (stereo not drawn)	.	1.0	-2.3	i	-1.5	-2.2	0.4	.	.
COc1ccc(N(CC2CO2)S(=O)(=O)c2ccccc2)cc1 (stereo not drawn)	14.1%	2.5	-0.4	i	-9.3	-7.0	-0.5	5.9	0.678
O=C(COc1ccc(Br)cc1)N1CCc2ccccc21	-1.8%	2.6	-3.3	i	6.9	4.2	-2.3	-6.9	0.713
Cc1ccc(C2=NN(C(=O)CN3C(=O)c4ccccc4S3(=O)=O)C(c3ccco3)C2)cc1 (stereo not drawn)	-13.5%	-1.0	2.1	i	18.6	0.2	2.0	-17.4	0.708
CCCc1c(C(=O)N/N=C/c2ccoc2)nnn1-c1nonc1N	4.5%	-2.7	2.0	i	6.0	12.6	0.1	.	.
COc1ccc(S(=O)(=O)N2CCN(C(=O)Cc3cccs3)CC2)cc1	8.0%	0.0	-3.1	i	10.4	-12.0	5.0	-6.5	0.735
NC(=O)C1(NC(=O)[C@@H]2CC3(CC(c4cccc(NC(=O)c5cc([N+](=O)[O-])cc([N+](=O)[O-])c5)c4)=NO3)CN2C(=O)c2ccccc2)CC1 (stereo partly drawn)	10.9%	-2.9	1.8	i	7.3	5.2	1.6	-4.0	.
CCNC(=O)c1c(O)c2cccc3c2n(c1=O)CC3	-2.8%	1.2	.	.	.	.	.	-1.7	0.734
N#CC1=C(N)N(c2ccc(Oc3ccccc3)cc2)C(=O)C1	5.9%	-0.9	.	.	.	.	.	1.9	0.756
CS(=O)(=O)N1[C@H](C#N)[C@@H](c2ccc(-c3ccccc3F)cc2)[C@@H]1CO	.	.	1.0	i	-5.1	-15.6	-1.7	.	.
C[C@@H]1CCCCO[C@H](CN(C)C(=O)c2ccccc2)[C@H](C)CN([C@@H](C)CO)C(=O)c2cc(NC(=O)Nc3ccc4c(c3)OCO4)ccc2O1	.	.	1.3	i	-1.6	-1.9	-1.3	.	.
C[C@@H]1CN([C@@H](C)CO)C(=O)c2cc(C3=CCCC3)cnc2O[C@H]1CN(C)C(=O)Nc1ccc(C(F)(F)F)cc1	.	.	-1.2	i	-3.7	-15.4	4.3	.	.
COc1ccc(-c2ccc3c(c2)[C@@H]2[C@@H](CCN2S(=O)(=O)c2ccccc2F)[C@@H](CO)N3C)cc1	.	.	0.3	i	-2.6	0.3	-4.7	.	.
Cc1cccc(C(=O)N/N=C/c2coc3ccccc3c2=O)c1	.	0.9	-2.0	i	0.8	13.0	-1.4	88.6*	.
NS(=O)(=O)c1ccc(CNC(=O)C2CCCN2C(=O)c2cccs2)cc1 (stereo not drawn)	-5.8%	7.1	0.0	i	4.6	8.1	2.1	.	0.728
COc1ccc(/C=C/C(=O)c2c(C)nc3ccccn23)cc1	-5.5%	-0.4	.	.	.	.	.	5.3	0.702
Cc1ccc(S(=O)(=O)N2CCN(C(=O)C3CC3C)CC2)c(C)c1 (stereo not drawn)	9.0%	-1.2	-0.5	i	1.3	3.7	1.5	-0.5	0.714
CCOC(=O)/C=C1\SCC(=O)N1CC(=O)NC(C)c1ccccc1 (stereo not drawn)	-4.1%	9.5	.	.	.	.	.	-4.0	0.726
SMILES	Vif TR-FRET	HNF4A DNA FP	MLL AF4-AF9 inh	FGF22 binding	Ecoli rRNA inh	Ecoli rRNA inh OD600	Ecoli rRNA inh RFP	ALR H2O2 inh	Ecoli growth
COc1ccc(C2CC(c3cccs3)=NN2S(C)(=O)=O)cc1 (stereo not drawn)	-4.5%	1.3	-6.9	i	1.4	-1.1	-1.5	-2.0	0.706
Cn1nc(C(C)(C)C)cc1NC(=O)Nc1ccc(Cl)cc1	.	4.6	-2.1	i	-15.3	-8.9	-2.3	7.0	0.663
Cc1cc(C(=O)Nc2cccc3c2O[C@H](CN(C)CC2CCCCC2)[C@H](C)CN([C@@H](C)CO)C3=O)n(C)n1	.	.	-21.5	i	3.8	9.8	1.3	.	.
CC1=CCC(C(=O)O)(C(=O)N/N=C/c2cccs2)C(c2ccc(F)cc2)C1 (stereo not drawn)	-1.0%	-0.9	.	.	.	.	.	-0.3	.
Cc1cc(C)cc(NC(=O)c2nnn(Cc3cc(C)ccc3C)c2N)c1	-9.3%	2.9	.	.	.	.	.	1.3	0.72
CN(C)CCCN1C(=O)c2cccc3cccc(c23)C1=O	.	-2.6	-3.1	i	-6.3	-2.7	-2.2	-5.2	0.651
N#CCCCSc1nnc(-c2ccccn2)o1	-7.0%	3.7	.	.	.	.	.	16.6	0.701
Cc1ccc(C2(c3ccccc3)NC(=O)N(CC(=O)NCc3ccco3)C2=O)cc1C (stereo not drawn)	-1.6%	2.0	2.9	i	.	.	.	-0.9	.

A portion of the library, so the mix of outcomes need not match the whole.
